# Screens: PubChem, Broad Institute
# Ecoli rRNA inh: reduced GFP signal of wild-type E. coli, primary screen, bacterial rRNA inhibitor project, GFP/RFP fluorescence, OD600, single point; actives 1.6% (n = 350,000); E. coli WT GFP vs humanized-ribosome RFP mutants, 24 h; active compounds read low; DMSO median 0, no signal -100; GFP signal change (wild-type ribosome), % (no concentration beside the values);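 active = significant combined selectivity score with lowered wild-type GFP, culture density cut under 30%, mutant RFP and density less affected; inactive = any of these conditions unmet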; also: one replicate is shown; some compounds called inactive have numbers as strong as hits
# MLL AF4-AF9 inh: inhibitors of AF4 peptide binding to AF9, primary screen, biochemical, AlphaScreen, biotin-AF4 peptide, FLAG-AF9, single point | Protein AF-9 (Homo sapiens), P42568 | AID 651704, 2012 | actives 0.47% (n = 350,000) | inhibition, % at 10 µM;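 active = every replicate reaching a set inhibition limit, whatever the replicate mean, cut at about 25% in these data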;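 also: 0% = plate neutral control median and 100% = total signal loss; the record names both 10 and 1 µM as test concentration; the first replicate is given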
# Target sequence (P42568 whole entry, looked up): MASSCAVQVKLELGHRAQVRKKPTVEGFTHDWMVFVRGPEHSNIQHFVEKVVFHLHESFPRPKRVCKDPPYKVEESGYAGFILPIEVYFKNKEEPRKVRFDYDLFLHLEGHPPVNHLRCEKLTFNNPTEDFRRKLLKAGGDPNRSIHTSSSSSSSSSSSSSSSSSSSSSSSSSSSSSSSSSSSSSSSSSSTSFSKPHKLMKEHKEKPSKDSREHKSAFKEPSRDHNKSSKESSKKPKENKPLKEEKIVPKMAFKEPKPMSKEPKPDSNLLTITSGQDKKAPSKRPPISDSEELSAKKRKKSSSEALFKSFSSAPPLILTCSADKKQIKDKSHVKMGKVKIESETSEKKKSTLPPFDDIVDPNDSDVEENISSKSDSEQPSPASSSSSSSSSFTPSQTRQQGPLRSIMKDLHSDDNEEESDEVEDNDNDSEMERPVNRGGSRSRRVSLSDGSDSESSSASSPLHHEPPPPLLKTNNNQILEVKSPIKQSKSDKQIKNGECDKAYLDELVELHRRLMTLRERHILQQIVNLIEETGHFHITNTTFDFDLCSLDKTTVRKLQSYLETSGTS
# Ecoli rRNA inh OD600: further read-out of Ecoli rRNA inh, marked with its call; OD600 change, %; measured here: OD600 growth;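 optical density of the mix in the first replicate; 0 = DMSO median and -100 = no signal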
# Ecoli rRNA inh RFP: recorded beside Ecoli rRNA inh, whose call it bears; RFP signal change, %; measured here: RFP humanized mutant strains;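 first replicate; 0 = DMSO median and -100 = no signal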
# * hit, by the source's call; & = joins results of further samples. This is a subset; the hit share may differ from the screen's.
Ecoli rRNA inh,Ecoli rRNA inh OD600,Ecoli rRNA inh RFP,MLL AF4-AF9 inh,Compound
-2,-5,0.9,3.1,C[C@@H]1CCCCO[C@H](CN(C)Cc2ccncc2)[C@H](C)CN([C@@H](C)CO)C(=O)c2cc(NC(=O)c3ccccc3)ccc2O1
-24,-25,-0.9,0.7,COCOCCn1cc(CN2CCS(=O)(=O)N(Cc3ccc(-c4ccc(OC)cc4)cc3)C(C)C2=O)nn1 (configuration not stated)
3,0,0.5,-2.9,COC(=O)[C@@H]1[C@@H](CO)[C@@H]2Cn3c(ccc(-c4ccccc4F)c3=O)[C@@H]2N1C(=O)CC1CC1
2,3,-2.5,-0.9,C[C@@H]1CN([C@H](C)CO)C(=O)c2cc(C#Cc3cccnc3)cnc2O[C@H]1CN(C)C(=O)CN(C)C
2,-3,0.6,-3.0,COCC(=O)N1C[C@H](C)[C@@H](OC)CN(C)C(=O)c2ccc(NS(C)(=O)=O)cc2OC[C@H]1C
3,3,2.2,-0.7,C[C@H]1CN([C@@H](C)CO)C(=O)Cc2cc(NC(=O)NC3CCCCC3)ccc2O[C@H]1CN(C)Cc1ccc(-c2ccccc2)cc1
-2,-5,-3.8,0.9,O=C(c1ccccn1)N1CC[C@@H]2[C@@H](CO)Nc3ccc(-c4ccccc4)cc3[C@@H]21
-7,-15,-1.5,-2.4,O=C(Nc1ccc(C(=O)O)cc1)/C(=C\c1ccc2c(c1)OCO2)NC(=O)c1ccccc1Cl
-19,-60,14,7.0,C[C@H](CO)N1C[C@H](C)[C@@H](CN(C)Cc2ccc(Cl)c(Cl)c2)Oc2c(NC(=O)Nc3cccc4ccccc34)cccc2C1=O
3,-2,-3.5,-1.9,CC(C(=O)NCc1ccccc1)n1c(Cc2cc(F)cc(F)c2)nc2ccccc21 (configuration not stated)
-2,-5,-2.8,-1.1,C[C@@H]1CN([C@@H](C)CO)C(=O)c2cc(NC(=O)Cc3ccccc3)ccc2O[C@@H]1CN(C)S(=O)(=O)c1ccc(F)cc1
1,-1,-0.2,-2.7,Cc1ccc(S(=O)(=O)Nc2ccc3c(c2)C(=O)N([C@H](C)CO)C[C@H](C)[C@H](CN(C)S(C)(=O)=O)O3)cc1
3,0,-1.7,4.5,CC(C)NC(=O)Nc1ccc2c(c1)C(=O)N([C@H](C)CO)C[C@@H](C)[C@H](CN(C)Cc1ccc(C(F)(F)F)cc1)OCCCC[C@H](C)O2
0,2,1.6,-0.1,CCc1cnc(N2[C@H](C#N)[C@H](c3ccc(C4=CCCC4)cc3)[C@H]2CO)s1
2,12,1.8,1.5,C[C@@H]1CCCCO[C@@H](CN(C)Cc2ccncc2)[C@H](C)CN([C@H](C)CO)C(=O)c2cc(N(C)C)ccc2O1
-3,-3,-1.6,1.8,COc1ccc2c3c([nH]c2c1)[C@H](CO)N(C(C)=O)CC31CCN(S(=O)(=O)c2ccccc2)CC1
-3,-10,-1.1,3.3,C[C@@H]1CN([C@@H](C)CO)C(=O)c2cccc(NC(=O)c3nc4ccccc4s3)c2O[C@H]1CN(C)C(=O)Nc1ccccc1
2,9,2.3,-0.7,Cc1ccc(S(=O)(=O)Nc2cccc3c2O[C@@H](CN(C)S(=O)(=O)c2cn(C)cn2)[C@@H](C)CN([C@H](C)CO)C3=O)cc1
4,6,-0.9,3.4,Cc1noc(C)c1NC(=O)Nc1ccc2c(c1)C(=O)N([C@@H](C)CO)C[C@H](C)[C@@H](CN(C)CC1CCCCC1)OCCCC[C@H](C)O2
1,3,-0.2,-0.3,Cc1ccccc1NC(=O)Nc1ccc2c(c1)C(=O)N(C)[C@@H]1CC[C@@H](CC(=O)NCC3CC3)O[C@H]1CO2

# Continued:
Ecoli rRNA inh,Ecoli rRNA inh OD600,Ecoli rRNA inh RFP,MLL AF4-AF9 inh,Compound
2,6,0.6,-2.2,CCCNC(=O)C[C@H]1CC[C@H]2[C@H](COc3ccc(NC(=O)CC)cc3C(=O)N2C)O1
-14,-35,23,12,COc1ccccc1CNC(=O)Nc1nc(C(N)CCc2ccccc2)cs1 (configuration not stated)
-1,4,1.0,-1.4,CCCN(C)C[C@H]1Oc2ncc(C#CCOC)cc2C(=O)N([C@@H](C)CO)C[C@H]1C
3,-2,3.7,13,O=C1NC[C@@H](CCCCN2C[C@H](Cc3ccc(O)cc3)N(CCc3ccccc3)C(=O)C2=O)N(CCc2ccccc2)C1=O
-2,-18,3.9,3.9,Cc1noc(C)c1S(=O)(=O)Nc1ccc2c(c1)C(=O)N([C@H](C)CO)C[C@H](C)[C@H](CN(C)Cc1ccc(Oc3ccccc3)cc1)O2
-3,-24,0.5,3.6,C[C@H]1CN([C@@H](C)CO)C(=O)c2cccc(NC(=O)Nc3ccc(F)cc3)c2O[C@H]1CN(C)Cc1ccc(C(F)(F)F)cc1
0,7,-1.0,-2.4,C[C@H](CO)N1C[C@H](C)[C@H](CN(C)Cc2ccncc2)Oc2ccc(NS(=O)(=O)c3cn(C)cn3)cc2CC1=O
0,0,2.7,-1.1,COc1ccc2c3c(n(C)c2c1)[C@@H](CO)N(Cc1ccc2c(c1)OCO2)CC31CCN(C(=O)c2ccc3c(c2)OCO3)CC1
-2,4,1.6,0.1,CN(C)C(=O)c1ccc(-c2ccccc2[C@H]2[C@@H](C#N)N(C(=O)C3CCCCC3)[C@@H]2CO)cc1
-1,7,1.8,-25,C[C@H](CO)N1C[C@H](C)[C@@H](CN(C)S(=O)(=O)c2ccc(Cl)cc2)Oc2c(NS(=O)(=O)c3ccccc3)cccc2C1=O
14,15,1.6,-1.9,O=C(NN=Cc1ccco1)C(=O)Nc1ccc(Cl)c([N+](=O)[O-])c1
6,12,-5.0,1.4,O=C(C[C@H]1CC[C@@H](NC(=O)c2ccccn2)[C@H](CO)O1)NCc1cccc(F)c1
1,1,0.5,-2.1,CO[C@H]1CN(C)C(=O)c2cc(NS(=O)(=O)CC(F)(F)F)ccc2OC[C@H](C)N(C(=O)c2ccc3c(c2)OCO3)C[C@@H]1C
-2,-5,0.7,-1.9,COc1ccc(-c2ccccc2[C@H]2[C@@H](C#N)N(C(=O)NC(C)C)[C@H]2CO)cc1
-1,-4,5.8,-1.5,CC(C)(C)[S@](=O)N1Cc2cc(C(=O)NCCN3CCCC3)nc(-c3cccc(-c4ccc(C#N)cc4)c3)c2[C@@H]1CCO
-4,7,-1.7,-2.0,C[C@H]1CCCCO[C@@H](CN(C)C(=O)Nc2ccc3c(c2)OCO3)[C@@H](C)CN([C@@H](C)CO)C(=O)c2cc(NC(=O)Nc3ccc(F)cc3)ccc2O1
10,8,8.6,2.1,COC[C@H]1CCCN1c1ccc2c(c1)O[C@@H](COCc1ccccc1)CN([C@H](C)c1ccccc1)S2(=O)=O
2,3,-1.1,-9.3,C[C@H](CO)N1C[C@H](C)[C@H](CN(C)Cc2cccnc2)Oc2ncc(C#CC3(O)CCCC3)cc2C1=O
-5,3,1.3,4.8,COc1ccc(-c2nc3c(C)cc(Br)cn3c2Cc2ccccc2)cc1OC
4,7,1.4,-0.4,CN1C(=O)c2cc(NS(=O)(=O)c3ccc(F)cc3)ccc2OC[C@@H]2O[C@@H](CC(=O)O)CC[C@H]21

# The list continues.
Ecoli rRNA inh,Ecoli rRNA inh OD600,Ecoli rRNA inh RFP,MLL AF4-AF9 inh,Compound
-2,-1,0.6,-0.8,CO[C@@H](CN(C)Cc1nccs1)[C@@H](C)CN([C@H](C)CO)S(=O)(=O)c1ccc(F)cc1
2,1,-3.3,-0.4,CCCC(=O)Nc1ccc2c(c1)C(=O)N(C)C[C@H](OC)[C@@H](C)CN(C(=O)c1ccccc1F)[C@H](C)CO2
9,-5,-3.1,1.0,Cc1cccc(C)c1-n1nnnc1C1(C)CCC(=O)N1CCc1ccc(O)cc1 (configuration not stated)
1,3,2.8,0.2,C[C@H](CO)N1C[C@H](C)[C@H](CN(C)Cc2ccc(C(F)(F)F)cc2)Oc2ccc(NC(=O)Nc3ccc4c(c3)OCO4)cc2CC1=O
7,7,-0.5,-0.1,COc1ccccc1CCC(=O)NNC(=O)Cn1nc(C)cc1C
-2,-2,-0.1,0.1,C[C@H](CO)N1C[C@H](C)[C@@H](CN(C)C(=O)Nc2ccccc2)OCCCC[C@H](C)Oc2ccc(NC(=O)C3CCCCC3)cc2C1=O
4,5,1.7,15,COc1cccc(S(=O)(=O)Nc2ccc3c(c2)[C@H]2C[C@@H](CC(=O)O)O[C@H](CO)[C@H]2O3)c1
-1,0,0.1,-0.8,COCC(=O)Nc1ccc2c(c1)C(=O)N(C)C[C@H](OC)[C@@H](C)CN(C(=O)C1CCCC1)[C@@H](C)CO2
-5,-26,25,-5.1,C[C@@H]1CN([C@@H](C)CO)C(=O)c2cc(C#CCC3CCCC3)cnc2O[C@H]1CN(C)Cc1ccccn1
1,7,-1.3,-1.9,O=C(C[C@H]1C=C[C@@H](NC(=O)Nc2ccc(C(F)(F)F)cc2)[C@H](CO)O1)NCc1cc(F)cc(F)c1
-3,-7,1.1,2.5,COc1cccc(S(=O)(=O)N2CCCCN3[C@@H](CO)[C@@H](c4ccc(-c5cccnc5)cc4)[C@@H]3C2)c1
-34,-64,4.7,0.1,O=C(CC1CC1)N1CC(=O)N2[C@H](CO)[C@@H](c3ccc(C#Cc4cccc(F)c4)cc3)[C@H]2C1
4,4,-4.4,-6.1,CC(=O)N1[C@H](C(=O)N2CCc3ccccc3C2)[C@@H](CO)[C@@H]2Cn3c(cccc3=O)[C@@H]21
1,9,-2.6,-1.7,CC(C)C#Cc1cnc2c(c1)C(=O)N([C@@H](C)CO)C[C@@H](C)[C@H](CN(C)Cc1cncnc1)O2
3&6,4&10,-2.3&-0.5,-6.6&-2.7&1.5,COc1ccc(S(=O)(=O)Nc2ccc3c(c2)C(=O)N([C@H](C)CO)C[C@H](C)[C@@H](CN(C)C)OCCCC[C@H](C)O3)cc1
1,-6,-1.0,-0.8,C[C@H](O)C#Cc1cnc2c(c1)C(=O)N([C@H](C)CO)C[C@@H](C)[C@H](CN(C)C(=O)c1ccccc1)O2
-16,-30,3.7,3.2,Cc1[nH]c2ccccc2c1C(=O)COC(=O)C1CC(O)CN1S(=O)(=O)c1ccc(Cl)cc1 (configuration not stated)
0,-1,-0.3,1.7,C[C@@H]1CN([C@@H](C)CO)C(=O)c2cc(/C=C/c3ccccc3)cnc2O[C@H]1CN(C)C(=O)CN1CCOCC1
2,-2,-2.9,-14,COc1ccccc1S(=O)(=O)N1C[C@H](O)COC[C@H]2O[C@@H](CC(=O)O)CC[C@@H]21
1,-4,-2.4,-1.0,C[C@@H]1CCCCO[C@@H](CN(C)C(=O)NC2CCCCC2)[C@H](C)CN([C@@H](C)CO)C(=O)c2cc(NC(=O)Nc3ccc4c(c3)OCO4)ccc2O1

# One compound at a time, from the list above. Order of screens: Ecoli rRNA inh, Ecoli rRNA inh OD600, Ecoli rRNA inh RFP, MLL AF4-AF9 inh
# CC(C)C#Cc1cnc2c(c1)C(=O)N([C@@H](C)CO)C[C@@H](C)[C@H](CN(C)Cc1cncnc1)O2 in the list: 1, 9, -2.6, -1.7
# C[C@H](O)C#Cc1cnc2c(c1)C(=O)N([C@H](C)CO)C[C@@H](C)[C@H](CN(C)C(=O)c1ccccc1)O2 in the list: 1, -6, -1.0, -0.8

# Other records follow.
Ecoli rRNA inh,Ecoli rRNA inh OD600,Ecoli rRNA inh RFP,MLL AF4-AF9 inh,Compound
4,12,-3.6,3.4,C/C=C/c1ccc2c(c1)[C@H]1[C@H](CCN1C(=O)Cc1cccnc1)[C@H](CO)N2C
-22,-44,15,0.5,CC(C)c1cn(CC[C@@H]2CC[C@@H](NC(=O)Nc3cc(Cl)cc(Cl)c3)[C@H](CO)O2)nn1
-1,-5,-1.0,-0.7,Cc1ccc(S(=O)(=O)Nc2ccc3c(c2)C(=O)N([C@H](C)CO)C[C@@H](C)[C@H](CN(C)C(=O)Nc2ccccc2)OCCCC[C@@H](C)O3)cc1
0,5,4.6,-3.0,C[C@@H]1CN([C@H](C)CO)C(=O)c2cc(NC(=O)c3ccccc3)ccc2O[C@@H](C)CCCCO[C@H]1CN(C)C(=O)Cc1ccccc1
2,6,4.5,-0.6,CCC(=O)Nc1ccc2c(c1)C(=O)N(C)C[C@H](OC)[C@@H](C)CN(C(=O)c1cccnc1)[C@@H](C)CO2
0,8,-3.4,1.1,COc1ccc(NC(=O)Nc2ccc3c(c2)[C@H]2C[C@H](CC(=O)NCc4ccncc4)O[C@@H](CO)[C@H]2O3)cc1
4,2,2.0,-2.8,Cc1noc(C)c1NC(=O)Nc1ccc2c(c1)CC(=O)N([C@@H](C)CO)C[C@@H](C)[C@@H](CN(C)S(=O)(=O)c1c(C)noc1C)O2

# Quoted from the listing, four compounds:
Ecoli rRNA inh,Ecoli rRNA inh OD600,Ecoli rRNA inh RFP,MLL AF4-AF9 inh,Compound
0,5,4.6,-3.0,C[C@@H]1CN([C@H](C)CO)C(=O)c2cc(NC(=O)c3ccccc3)ccc2O[C@@H](C)CCCCO[C@H]1CN(C)C(=O)Cc1ccccc1
2,6,4.5,-0.6,CCC(=O)Nc1ccc2c(c1)C(=O)N(C)C[C@H](OC)[C@@H](C)CN(C(=O)c1cccnc1)[C@@H](C)CO2
0,8,-3.4,1.1,COc1ccc(NC(=O)Nc2ccc3c(c2)[C@H]2C[C@H](CC(=O)NCc4ccncc4)O[C@@H](CO)[C@H]2O3)cc1
4,2,2.0,-2.8,Cc1noc(C)c1NC(=O)Nc1ccc2c(c1)CC(=O)N([C@@H](C)CO)C[C@@H](C)[C@@H](CN(C)S(=O)(=O)c1c(C)noc1C)O2
